Yeast UUG start: modulators of start codon recognition fidelity in yeast | S. cerevisiae UUG-firefly luciferase reporter, luminescence/redox ratio | activity score, % at 18.7 µM | 350,000 tested, 0.13% active | AID 602363;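 active means replicate mean at a twofold rise or more, about +100% in these data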;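 further: firefly luciferase made from a UUG start codon reports start codon fidelity; reporter light over untreated wells divided by growth signal over untreated wells; some hits fall short of that in this replicate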
An asterisk follows results filed as active. Not all compounds are listed (hit frequency here may not be typical).

structure	Yeast UUG start
C[C@@H]1CN([C@@H](C)CO)C(=O)c2ccccc2-c2ccccc2CO[C@H]1CN(C)Cc1ccc(C(=O)O)cc1	-4
COC(=O)[C@@H]1[C@@H](CO)[C@@H]2Cn3c(cccc3=O)[C@@H]2N1C(=O)C1CCCCC1	2
COCC(=O)Nc1ccc2c(c1)C(=O)N(C)[C@@H]1CC[C@@H](CC(=O)NCC3CCCCC3)O[C@H]1CO2	-4
COc1ccc(C#Cc2ccc3c(c2)[C@H]2[C@H](CCN2S(=O)(=O)c2ccc(OC)cc2)[C@H](CO)N3C)cc1	-24
O=C(Nc1ccc(-c2ccccc2)cc1)[C@H]1[C@H](CO)[C@H]2Cn3c(cccc3=O)[C@@H]1N2Cc1ccccc1	3
CO[C@H]1CN(C)C(=O)c2cc(NC(=O)C3CCC3)ccc2OC[C@@H](C)N(CC2CCCCC2)C[C@H]1C	10
C[C@H](O)C#Cc1ccc([C@H]2[C@@H](CO)N3CCCCN(C(=O)c4ccncc4)C[C@H]23)cc1	5
C[C@H]1CN([C@@H](C)CO)C(=O)c2cc(NS(=O)(=O)c3ccccc3)ccc2O[C@@H]1CN(C)S(C)(=O)=O	0
C[C@H](CO)N1C[C@H](C)[C@H](CN(C)S(=O)(=O)c2ccc(Cl)cc2)Oc2c(NS(C)(=O)=O)cccc2C1=O	-3
CO[C@H]1CN(C)C(=O)c2ccc(NS(=O)(=O)c3cccc(C)c3)cc2OC[C@@H](C)NC[C@H]1C	20
CO[C@H]1CN(C)C(=O)c2ccc(NS(=O)(=O)c3cn(C)cn3)cc2OC[C@H](C)N(CC2CC2)C[C@H]1C	-1
CC(=O)N1[C@@H](CO)[C@@H]2c3ccccc3N(C(=O)c3ccccc3)C[C@@H]21	-4

The closing 4 entries of the part before open the next one.
structure	Yeast UUG start
C[C@H](CO)N1C[C@H](C)[C@H](CN(C)S(=O)(=O)c2ccc(Cl)cc2)Oc2c(NS(C)(=O)=O)cccc2C1=O	-3
CO[C@H]1CN(C)C(=O)c2ccc(NS(=O)(=O)c3cccc(C)c3)cc2OC[C@@H](C)NC[C@H]1C	20
CO[C@H]1CN(C)C(=O)c2ccc(NS(=O)(=O)c3cn(C)cn3)cc2OC[C@H](C)N(CC2CC2)C[C@H]1C	-1
CC(=O)N1[C@@H](CO)[C@@H]2c3ccccc3N(C(=O)c3ccccc3)C[C@@H]21	-4
CCNC(=O)C[C@@H]1CC[C@@H]2[C@@H](COc3ccc(NC(=O)Nc4ccccc4Cl)cc3C(=O)N2C)O1	20
CCCC(=O)Nc1ccc2c(c1)OC[C@@H](C)N(C(=O)c1cnccn1)C[C@H](C)[C@H](OC)CN(C)C2=O	-6
CCS(=O)(=O)Nc1ccc2c(c1)C(=O)N(C)C[C@H](OC)[C@@H](C)CN(C(=O)C1CC1)[C@H](C)CO2	-1
COCC(=O)Nc1ccc2c(c1)OC[C@@H](C)N(C(=O)COC)C[C@@H](C)[C@H](OC)CN(C)C2=O	-4
Cn1cnc(CCNC(=O)C[C@H]2CC[C@H]3[C@@H](COC[C@H](O)CN3C(=O)Nc3ccc(F)cc3)O2)c1	-15
O=C(C[C@@H]1CC[C@@H]2[C@H](COC[C@H](O)CN2C(=O)c2ccc(F)cc2)O1)N1CCOCC1	8
CO[C@H]1CN(C)C(=O)c2cc(NC(=O)C3CCC3)ccc2OC[C@H](C)N(Cc2nccs2)C[C@@H]1C	-5
C[C@@H]1CN([C@@H](C)CO)C(=O)Cc2cc(NC(=O)NC3CCCCC3)ccc2O[C@@H]1CN(C)C	10
Cc1ccc(S(=O)(=O)N(C)C[C@@H]2Oc3ccc(NC(=O)CCCN(C)C)cc3CC(=O)N([C@H](C)CO)C[C@H]2C)cc1	15
C[C@@H]1CN([C@H](C)CO)C(=O)c2cc(NS(=O)(=O)c3ccc(Cl)cc3)ccc2O[C@@H]1CN(C)C	11
C[C@H](CO)N1C[C@H](C)[C@@H](CN(C)Cc2ccc(C(=O)O)cc2)Oc2ccc(NC(=O)Nc3cccc4ccccc34)cc2C1=O	4
O=C(C[C@@H]1CC[C@@H]2[C@H](COC[C@@H](O)CN2C(=O)c2ccccc2F)O1)N1CCOCC1	-7

structure	Yeast UUG start
C[C@@H]1CN([C@@H](C)CO)C(=O)Cc2cc(NC(=O)Nc3cccc4ccccc34)ccc2O[C@H]1CN(C)C	35
CCC(=O)N1[C@H](CN(CC)C(=O)c2ccc(F)cc2)[C@@H](c2ccccc2)[C@@H]1CO	-2
C[C@H]1CN([C@@H](C)CO)C(=O)c2cccc(NC(=O)Nc3ccccc3)c2O[C@@H]1CN(C)S(C)(=O)=O	-1
Cc1c(C(=O)N2CCN(S(=O)(=O)c3ccccc3F)CC2)oc2c(Cl)cccc12	0
COc1cccc(S(=O)(=O)N2CC[C@@H]3[C@@H](CO)Nc4ccc(-c5ccccc5OC)cc4[C@@H]32)c1	-4
CCS(=O)(=O)N(C)C[C@@H]1OCc2ccccc2-c2c(n(C)c3ccccc23)C(=O)N([C@@H](C)CO)C[C@@H]1C	-6
CCCC(=O)Nc1ccc2c(c1)C(=O)N(C)C[C@@H](OC)[C@H](C)CN(CCc1ccccc1)[C@@H](C)CO2	3
Cc1cc(C(=O)Nc2cccc3c2O[C@H](CN(C)Cc2ccc(-c4ccccc4)cc2)[C@H](C)CN([C@@H](C)CO)C3=O)n(C)n1	-4
C[C@@H]1CN([C@@H](C)CO)C(=O)c2cc(NC(=O)Nc3cccc4ccccc34)ccc2O[C@H]1CN(C)S(=O)(=O)c1cccs1	7
CCCNC(=O)C[C@@H]1C[C@H]2c3cc(NS(=O)(=O)c4cccc(OC)c4)ccc3O[C@H]2[C@H](CO)O1	-5
COCC(=O)N(C[C@@H]1[C@@H](c2ccccc2)[C@H](CO)N1C(=O)NC(C)C)C(C)C	-13
COc1ccc(C(=O)N2C[C@@H]3[C@H](c4ccccc42)[C@H](CO)N3C(=O)Cc2ccccn2)cc1	-8

structure	Yeast UUG start
CCC(=O)Nc1ccc2c(c1)C(=O)N(C)C[C@H](OC)[C@H](C)CN(CC1CCCCC1)[C@H](C)CO2	-8
CNC[C@H]1Oc2c(NS(=O)(=O)c3ccc(Cl)cc3)cccc2C(=O)N([C@@H](C)CO)C[C@H]1C	10
O=C(C[C@@H]1CC[C@H]2[C@@H](COC[C@H](O)CN2Cc2ccc(Oc3ccccc3)cc2)O1)N1CCOCC1	-2
COc1ccc(S(=O)(=O)N(C)C[C@H]2Oc3c(NC(=O)c4cc(C)nn4C)cccc3C(=O)N([C@H](C)CO)C[C@@H]2C)cc1	18
C[C@@H]1CN([C@@H](C)CO)C(=O)Cc2cc(NC(=O)c3ccncc3)ccc2O[C@@H]1CN(C)S(=O)(=O)c1ccccc1	0
Cc1cccc(-c2ccc([C@@H]3[C@H](CO)N4CCCCN(Cc5cncnc5)C[C@@H]34)cc2)c1	-14
CN1c2ccc(-c3ccccc3F)cc2[C@@H]2[C@@H](CCN2C(=O)Cc2ccccn2)[C@@H]1CO	38
CO[C@H]1CN(C)C(=O)c2cc(NC(=O)C3CC3)ccc2OC[C@H](C)N(C)C[C@@H]1C	0
O=C(C1CC1)N1CC[C@H]2[C@H](CO)Nc3ccc(-c4cccc(F)c4)cc3[C@H]21	8
C[C@H]1CN([C@@H](C)CO)C(=O)CCCn2nncc2CO[C@H]1CN(C)CC1CC1	9
CCCN1C[C@H](C)[C@@H](OC)CN(C)C(=O)c2cc(NC(=O)c3cccc(F)c3)ccc2OC[C@@H]1C	23
COCC(=O)N1C[C@H](C)[C@@H](OC)CN(C)C(=O)c2cc(NC(=O)c3ccccc3)ccc2OC[C@@H]1C	-3

structure	Yeast UUG start
O=C(c1ccccc1)N1C[C@H]2[C@@H](c3ccccc31)[C@H](CO)N2C(=O)Nc1ccccc1Cl	31
O=S(=O)(c1ccc(F)cc1)N1CCCCN2[C@@H](CO)[C@@H](c3ccc(C4=CCCCC4)cc3)[C@@H]2C1	9
CCCNC(=O)[C@@H]1[C@@H](CO)[C@@H]2Cn3c(ccc(-c4ccccc4)c3=O)[C@H]1N2Cc1ccccc1F	19
CC(C)NC(=O)N1C[C@H]2[C@@H](c3ccccc31)[C@H](CO)N2C(=O)c1ccncc1	-10
O=C(Nc1ccc(Cl)cc1)N1C[C@H]2[C@@H](c3ccccc31)[C@H](CO)N2C(=O)c1cccnc1	-7
CO[C@H]1CN(C)C(=O)c2ccc(NC(=O)NC(C)C)cc2OC[C@@H](C)N(Cc2ccccc2)C[C@@H]1C	16
CO[C@H]1CN(C)C(=O)c2cc(NC(=O)C3CC3)ccc2OC[C@@H](C)N(C)C[C@H]1C	-6
CCC(=O)N1C[C@@H](C)[C@H](OC)CN(C)C(=O)c2ccc(NC(=O)c3cnccn3)cc2OC[C@@H]1C	-6
O=C(NC[C@@H]1[C@@H](c2ccccc2)[C@@H](CO)N1CC1CCCC1)c1ccccc1	-5
CO[C@H]1CN(C)C(=O)c2ccc(NS(C)(=O)=O)cc2OC[C@@H](C)N(C(=O)C2CCCC2)C[C@@H]1C	37
CCC(=O)N1C[C@@H](C)[C@H](OC)CN(C)C(=O)c2ccc(NC(=O)Nc3ccccc3)cc2OC[C@@H]1C	41
CN1c2ccc(-c3ccc(F)cc3)cc2[C@H]2[C@H](CCN2C(=O)Cc2ccccn2)[C@@H]1CO	-2

structure	Yeast UUG start
O=C(C1CC1)N1CCCCN2[C@H](CO)[C@@H](c3ccc(-c4cccc(F)c4)cc3)[C@H]2C1	21
CC=Cc1ccc2n(c1=O)C[C@H]1[C@H](CO)[C@@H](C(=O)NCCC)[C@@H]2N1Cc1nccs1 (mixture of isomers)	-5
C[C@H]1CN([C@@H](C)CO)C(=O)Cc2cc(NS(=O)(=O)c3cn(C)cn3)ccc2O[C@H]1CN(C)Cc1ccncc1	4
CN(C)C(=O)C[C@H]1CC[C@@H]2[C@H](COC[C@@H](O)CN2C(=O)C2CCOCC2)O1	-3
CO[C@@H]1CN(C)C(=O)c2cc(NC(=O)C3CCCC3)ccc2OC[C@H](C)N(CCC(F)(F)F)C[C@H]1C	8
CC(=O)N1[C@H](CO)[C@@H](c2ccccc2)[C@@H]1CN(C(=O)c1ccccc1)C(C)C	4
CC(C)NC(=O)N(C)C[C@@H]1Oc2ccc(NC(=O)CCCN(C)C)cc2C(=O)N([C@H](C)CO)C[C@H]1C	11
C[C@@H]1CN([C@H](C)CO)C(=O)c2cccc(NC(=O)c3nc4ccccc4s3)c2O[C@@H]1CN(C)C(=O)Nc1ccc2c(c1)OCO2	6
O=C(C1CCCC1)N1C[C@@H]2[C@H](c3ccccc31)[C@@H](CO)N2C(=O)Nc1cccc(F)c1	33
C[C@@H]1CN([C@H](C)CO)C(=O)Cc2cc(NC(=O)CCC(F)(F)F)ccc2O[C@H]1CN(C)CC1CCCCC1	-5
CC(C)NC(=O)N(C)C[C@@H]1OCc2cn(nn2)CCCC(=O)N([C@@H](C)CO)C[C@H]1C	5
Cc1noc(C)c1NC(=O)Nc1ccc2c(c1)C(=O)N([C@H](C)CO)C[C@@H](C)[C@H](CN(C)S(C)(=O)=O)O2	-5

Sorted by count of non-hydrogen atoms (smallest number first): some entries from above.
structure	Yeast UUG start
CC(C)NC(=O)N(C)C[C@@H]1OCc2cn(nn2)CCCC(=O)N([C@@H](C)CO)C[C@H]1C	5
Cc1noc(C)c1NC(=O)Nc1ccc2c(c1)C(=O)N([C@H](C)CO)C[C@@H](C)[C@H](CN(C)S(C)(=O)=O)O2	-5
C[C@@H]1CN([C@H](C)CO)C(=O)c2cccc(NC(=O)c3nc4ccccc4s3)c2O[C@@H]1CN(C)C(=O)Nc1ccc2c(c1)OCO2	6

Next part.
structure	Yeast UUG start
C[C@H](O)C#Cc1ccc([C@H]2[C@H](CO)N3CCCCN(C(=O)c4ccc(F)cc4)C[C@@H]23)cc1	-2
COc1ccc(S(=O)(=O)N(C)C[C@@H]2Oc3c(NC(=O)c4cc(C)nn4C)cccc3C(=O)N([C@H](C)CO)C[C@@H]2C)cc1	-12
C[C@H]1CN([C@@H](C)CO)C(=O)c2cccc(NC(=O)c3ccncc3)c2O[C@H]1CN(C)Cc1ccc(-c2ccccc2)cc1	5
CO[C@@H]1CN(C)C(=O)c2cc(NC(=O)Nc3ccc(F)cc3)ccc2OC[C@@H](C)NC[C@@H]1C	-23
CCNC(=O)C[C@H]1CC[C@H]2[C@@H](COC[C@@H](O)CN2C(=O)Nc2ccc(Cl)c(Cl)c2)O1	-1
COc1ccc(NC(=O)Nc2cccc3c2O[C@@H](CN(C)Cc2ccc(C(=O)O)cc2)[C@H](C)CN([C@H](C)CO)C3=O)cc1	-3
CO[C@@H]1CN(C)C(=O)c2ccc(NS(=O)(=O)c3ccc(Cl)cc3)cc2OC[C@H](C)N(C(=O)NC(C)C)C[C@H]1C	7
CCC(=O)N1C[C@@H](C)[C@H](OC)CN(C)C(=O)c2ccc(NC(=O)Nc3cccc(F)c3)cc2OC[C@H]1C	0
CN1c2ccc(Br)cc2[C@@H]2[C@@H](CCN2C(=O)c2cccc(F)c2)[C@@H]1CO	11
CCCNC(=O)N1C[C@H]2[C@@H](c3ccccc31)[C@@H](CO)N2C(=O)NCCC	-6
CN1C[C@H]2[C@@H](c3ccccc31)[C@H](CO)N2C(=O)Nc1ccccc1Cl	-9
CCCC(=O)Nc1ccc2c(c1)OC[C@@H](C)N(C(=O)c1cnccn1)C[C@H](C)[C@@H](OC)CN(C)C2=O	-4
O=C(C[C@H]1CC[C@@H]2[C@H](COC[C@H](O)CN2C(=O)c2ccccc2F)O1)N1CCOCC1	-6
CCS(=O)(=O)N1CCCCN2[C@H](C1)[C@@H](c1ccc(-c3ccccc3)cc1)[C@@H]2CO	-5
CCCNC(=O)N1[C@@H]2CN(C(=O)Nc3cccc(F)c3)c3ccccc3[C@@H]2[C@@H]1CO	15

Source: PubChem (Broad Institute)
